Compound activity: PubChem, National Center for Advancing Translational Sciences (NCATS)
TRPV1 potentiator = potentiators of human vanilloid receptor 1 (TRPV1); potentiation, % at 8.33 µM; AID 540277; 0.02% of 320,000 active; Q8NER1; TRPV1-expressing cells, Fluo-8 calcium influx, capsaicin EC20 potentiation; host cell line not named in the record; control for the full effect not named in the record; active means potentiation above 80%; inconclusive means 30% to 80%; inactive means below 30%; further: 0% is about no effect
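TRPV1-expressing cells were cultured overnight at 35.5C and loaded with Fluo-8 calcium dye for 40 to 90 min at room temperature. After a 10 s baseline, compound was added and calcium influx was read kinetically for 3 min (ex 480/em 520 nm).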
D2 PAM = positive allosteric modulators of human D2 dopamine receptor; potentiation, % (no concentration beside the values); DiscoveRx D2 beta-arrestin cells, luminescence, 90 min; 100% = 57 uM dopamine signal; AID 624464; P14416; 0.23% of 360,000 active; active = potentiation of 50% or more; inconclusive = 30% to 50%; inactive = 30% or less;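 further: compound concentration not given in the record; tested on top of an EC20 dose of dopamine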
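PathHunter D2 cells, attached overnight at 37 deg C, received compound in DMSO plus dopamine at EC20 (50 nM final) for 90 min at 37 deg C. Beta-arrestin recruitment was read as luminescence after 1 h with detection reagent at ambient temperature.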
D2 agonist = activates the human D2 dopamine receptor | P14416 | DiscoveRx PathHunter D2 beta-arrestin, luminescence, 90 min; 100% = 57 uM dopamine signal | activation, % (test concentration not listed) | 0.084% of 360,000 active | AID 624465; in the data active = activation above about 40%; inconclusive = about 15% to 40%; inactive = below about 15%; further: compound concentration not given in the record; the text of the record calls up to 30% inactive
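DiscoveRx PathHunter D2 beta-arrestin cells (2,100/well) attached overnight, then compound-stimulated 90 min at 37 C in HBSS/10 mM HEPES/0.1% Tween-20 buffer; beta-galactosidase complementation read by luminescence after 1 h at ambient temperature. Dopamine 57 uM final (EC100) as control.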
Sfp inh = blocks B. subtilis Sfp PPTase activity | Q9F4F7 | Biochemical Sfp PPTase activity, qHTS | Potency, µM, for the others: max response, negative = inhibition, actives largely listed as inhibitors | 3.5% of 310,000 active; active means well fitted inhibition curve with a large enough effect; inconclusive means small, poorly fitted or top-dose-only effect, or another doubt; inactive means no such curve, though single readings can be large or run the other way;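 further: the enzyme is Sfp with the accession as filed and its product quenches rhodamine fluorescence; potency means the concentration at half of the fitted maximal effect; 0% = enzyme reaction without inhibitor and -100% = no enzyme wells; top concentration of the series not given in the record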
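Fluorescence-quenching assay with 15 nM Sfp, 5 uM rhodamine-CoA and 12.5 uM BHQ-2-labelled ybbR peptide in pH 7.6 Hepes/MgCl2 buffer. Enzyme was pre-incubated with compound for 15 min at room temperature. Rate was taken from the 30-min fluorescence change (525/598 nm).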
Six1-Eya2 inh = blocks human Six1 binding to Eya2 | 0.56% of 360,000 active | Q15475+O00167 | activity change, % (no concentration beside the values) | AlphaScreen GST-Six1/His-Eya2 binding, biochemical; hits give low values; control for the full effect not named in the record; in the data active = activity change below about -65%; inconclusive = about -30% to -65%; inactive = above about -30%; further: on the % scale 0 is the no-effect control and ±100 the full control effect; compound concentration not given in the record
Target sequence (O00167 whole entry, looked up): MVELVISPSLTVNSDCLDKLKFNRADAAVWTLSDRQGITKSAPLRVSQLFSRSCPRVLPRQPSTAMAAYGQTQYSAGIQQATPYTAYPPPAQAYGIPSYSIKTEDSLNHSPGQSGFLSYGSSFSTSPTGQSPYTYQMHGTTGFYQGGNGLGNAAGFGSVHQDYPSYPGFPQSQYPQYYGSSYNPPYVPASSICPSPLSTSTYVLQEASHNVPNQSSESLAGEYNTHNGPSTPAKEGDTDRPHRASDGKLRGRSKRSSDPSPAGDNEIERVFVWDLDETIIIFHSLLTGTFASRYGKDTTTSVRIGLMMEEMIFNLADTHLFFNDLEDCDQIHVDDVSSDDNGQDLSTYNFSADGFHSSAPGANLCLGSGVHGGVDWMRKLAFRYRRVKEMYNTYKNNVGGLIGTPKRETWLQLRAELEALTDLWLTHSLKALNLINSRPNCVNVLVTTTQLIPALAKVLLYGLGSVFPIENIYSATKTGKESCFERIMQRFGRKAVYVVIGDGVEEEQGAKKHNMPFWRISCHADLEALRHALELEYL
Target sequence (Q15475 whole entry, looked up): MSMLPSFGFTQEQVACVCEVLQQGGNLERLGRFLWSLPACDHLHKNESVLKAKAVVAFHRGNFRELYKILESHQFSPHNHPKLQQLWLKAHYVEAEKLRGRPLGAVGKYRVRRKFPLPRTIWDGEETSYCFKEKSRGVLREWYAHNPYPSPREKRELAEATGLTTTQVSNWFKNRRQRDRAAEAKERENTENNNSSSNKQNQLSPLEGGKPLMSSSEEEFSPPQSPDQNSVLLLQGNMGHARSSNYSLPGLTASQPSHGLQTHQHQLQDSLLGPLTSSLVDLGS
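GST-Six1 + His-Eya2 (5X stock: 250/500 nM); Tris pH 8.0, 300 mM NaCl, 0.05% BSA, 0.02% Tween 20; GSH donor/Ni acceptor beads; 1 h 37 °C dark; AlphaScreen readout.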
CtBP-E1A blk = inhibitors of CtBP/E1A interaction; AlphaScreen GST-E1A/His-CtBP binding, 1536-well; hits give low values; control for the full effect not named in the record; activity change, % (test concentration not listed); 0.49% of 340,000 active; in the data active means activity change below about -65%; inconclusive means about -30% to -65%; inactive means above about -30%; further: on the % scale 0 is the no-effect control and ±100 the full control effect; compound concentration not given in the record
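Homogeneous bead-based format: GST-tagged E1A captured on glutathione donor beads, His-tagged CtBP on nickel acceptor beads; compounds precede bead addition by 2 h at 37 °C.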
PINK1 expr mod = changes PINK1 expression. PINK1 immunofluorescence, high-content cytometry, 24 h. Potency, µM (doses to about 76.6 µM), without a hit: at the highest dose activation (PINK1 increase), actives largely listed as activators. 0.2% of 410,000 active; active = well fitted activation curve with a large enough effect; inconclusive = small, poorly fitted or top-dose-only effect; inactive = flat fitted curve, though single readings scatter; cell line not stated here;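 further: potency means the concentration at half of the fitted maximal effect; % of control where 0% means no effect; nearly all actives have a fitted effect of over 65% in size; a mitochondrial uncoupler was the plate control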
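Decision-based qHTS: stable cells, 24 h exposure to five compound concentrations, CCCP as control. Fixed cells stained for PINK1 plus nuclear, mitochondrial and cell markers, cytometer read.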
An asterisk follows results filed as active; ? = inconclusive; nt = not tested or not shown; [ ] = another dose, or the depositor's remark.

SMILES	TRPV1 potentiator	D2 PAM	D2 agonist	Sfp inh	Six1-Eya2 inh	CtBP-E1A blk	PINK1 expr mod
COc1ccc(NC(=S)N(CCCN2CCOCC2)Cc2cn(C)c3ccccc23)cc1	-3	-7	-6.3	-15%	-27	?	-0.3%
COc1cc(/C=C2/CCC/C(=C\c3cc(O)c(OC)c(Cl)c3)C2=O)cc(Cl)c1O	-7	-21	-9.6	-3%	-14	7	-0.2%
c1ccc2sc(-n3cc(C4CCCCC4)nn3)nc2c1	nt	nt	nt	nt	18	13	10%
CCC(=O)c1ccc(OC(=O)Cc2ccc(OC)cc2)cc1	?	-4	5.5	5%	-4	-8	0.0%
Fc1ccccc1-c1nc(-c2ccc(Br)o2)no1	4	-7	-0.6	-28%	-4	22	2.0%
CSc1ncc(Cl)c(C(=O)Nc2ccc(S(=O)(=O)N3CCOCC3)cc2)n1	8	-2	-2.7	7%	-16	-3	9.4%
O=C(CCc1nc2ccccc2s1)Nc1ccccc1	-6	-13	0.3	6%	0	-14	7.8%
CN(Cc1ccc(Cl)cc1Cl)C(=O)c1cccc(S(=O)(=O)N2CCN(c3ccccc3)CC2)c1	6	14	-6.4	nt	-7	-4	-0.4%
COc1ccc2[nH]c3c(=O)n(CCCCC(=O)N4CCC(C(N)=O)CC4)c(=S)[nH]c3c2c1	0	-20	3.2	-21%	?	?	3.4%[38.3 µM]
O=C(CCn1cnnn1)N1CCCC(Nc2ccc(F)c(F)c2)C1 (centres undefined)	-23	-32	-1.1	5%	28	7	-1.4%
O=C(N/N=C/c1ccc2c(c1)OCO2)c1sc2cccc(Cl)c2c1Cl	-4	-1	1.2	-6%	-2	3	1.9%
Cc1ccc(S(=O)(=O)N2CCN(C(=O)CCC(=O)NCCc3ccc(F)cc3)CC2)cc1	3	-7	-2.4	11%	4	7	0.4%
CCC(=O)N1CCc2cc(OC)c(OC)cc2C1COc1ccc(F)cc1 (centres undefined)	-7	-8	-4.0	13%	-14	nt	2.3%
O=C(Nc1cccc(-n2cccn2)c1)C1CCCN(Cc2cc3ccccc3[nH]2)C1 (centres undefined)	-1	-40	-5.4	0%	-6	-10	-0.2%
Cn1cnnc1SCC(=O)N1N=C2/C(=C/c3ccco3)CCCC2C1c1ccco1 (centres undefined)	7	-34	-6.3	11%	-6	-4	-1.4%
Clc1ncnc2[nH]ccc12	nt	-4	1.4	nt	-14	0	-2.3%
COc1ccc([C@H]2CN(CCc3ccccc3)C(=O)[C@@H]2CC(=O)Nc2ccccc2)cc1	nt	2	-6.4	nt	0	6	0.7%
CCCS(=O)(=O)NC(=O)C1(C)CCCN(C(=O)c2cc(C)n(C(C)(C)C)n2)C1 (centres undefined)	nt	0	-2.4	nt	1	1	0.8%
CC(=O)Oc1ccccc1N(C(C)=O)S(=O)(=O)c1ccc(C)cc1	-11	-2	-1.8	0%	5	8	0.5%
Cc1cc(C)c2c(N)c(C(=O)Nc3ncc(C)s3)sc2n1	5	13	1.2	-13%	-1	-20	-0.6%

Arranged by molecular weight (descending): part of the list above.
SMILES	TRPV1 potentiator	D2 PAM	D2 agonist	Sfp inh	Six1-Eya2 inh	CtBP-E1A blk	PINK1 expr mod
CN(Cc1ccc(Cl)cc1Cl)C(=O)c1cccc(S(=O)(=O)N2CCN(c3ccccc3)CC2)c1	6	14	-6.4	nt	-7	-4	-0.4%
Cc1ccc(S(=O)(=O)N2CCN(C(=O)CCC(=O)NCCc3ccc(F)cc3)CC2)cc1	3	-7	-2.4	11%	4	7	0.4%
COc1ccc2[nH]c3c(=O)n(CCCCC(=O)N4CCC(C(N)=O)CC4)c(=S)[nH]c3c2c1	0	-20	3.2	-21%	?	?	3.4%[38.3 µM]
COc1ccc([C@H]2CN(CCc3ccccc3)C(=O)[C@@H]2CC(=O)Nc2ccccc2)cc1	nt	2	-6.4	nt	0	6	0.7%
CCCS(=O)(=O)NC(=O)C1(C)CCCN(C(=O)c2cc(C)n(C(C)(C)C)n2)C1 (centres undefined)	nt	0	-2.4	nt	1	1	0.8%
O=C(Nc1cccc(-n2cccn2)c1)C1CCCN(Cc2cc3ccccc3[nH]2)C1 (centres undefined)	-1	-40	-5.4	0%	-6	-10	-0.2%
O=C(N/N=C/c1ccc2c(c1)OCO2)c1sc2cccc(Cl)c2c1Cl	-4	-1	1.2	-6%	-2	3	1.9%
CCC(=O)N1CCc2cc(OC)c(OC)cc2C1COc1ccc(F)cc1 (centres undefined)	-7	-8	-4.0	13%	-14	nt	2.3%
O=C(CCn1cnnn1)N1CCCC(Nc2ccc(F)c(F)c2)C1 (centres undefined)	-23	-32	-1.1	5%	28	7	-1.4%
Cc1cc(C)c2c(N)c(C(=O)Nc3ncc(C)s3)sc2n1	5	13	1.2	-13%	-1	-20	-0.6%
Fc1ccccc1-c1nc(-c2ccc(Br)o2)no1	4	-7	-0.6	-28%	-4	22	2.0%
CCC(=O)c1ccc(OC(=O)Cc2ccc(OC)cc2)cc1	?	-4	5.5	5%	-4	-8	0.0%
c1ccc2sc(-n3cc(C4CCCCC4)nn3)nc2c1	nt	nt	nt	nt	18	13	10%
O=C(CCc1nc2ccccc2s1)Nc1ccccc1	-6	-13	0.3	6%	0	-14	7.8%
Clc1ncnc2[nH]ccc12	nt	-4	1.4	nt	-14	0	-2.3%

(list continues)
SMILES	TRPV1 potentiator	D2 PAM	D2 agonist	Sfp inh	Six1-Eya2 inh	CtBP-E1A blk	PINK1 expr mod
C/C(CC(=O)Nc1ccc2c(c1)OCCO2)=N\NC(=O)C(=O)Nc1ccccc1C	2	-4	-4.3	17%	-7	nt	0.4%
O=C(COc1cccnc1[N+](=O)[O-])Nc1ccccc1Sc1ccccc1	13	-5	1.0	-24%	-5	-26	-1.3%
N#Cc1ccc(C(=O)OCCCc2cc3ccccc3c(=O)o2)cc1	-9	-4	-0.3	nt	10	15	-0.8%
COCCN(CC(=O)Nc1ccc(F)cc1)S(=O)(=O)c1ccc(S(=O)(=O)N2CCCC2)cc1	-6	-8	-2.4	15%	5	6	14%
CCc1ccc(Cc2cnc(NC(=O)C3=NCCN3)s2)cc1	6	-5	-0.4	6%	-3	-3	4.1%
Cc1ccccc1CSCC(=O)c1c(N)n(CC(C)C)c(=O)n(C)c1=O	7	-3	2.2	-1%	1	-3	3.6%
COc1cccc2c(=O)n(CC(=O)N3CCCCC3)ccc12	-15	-10	-4.0	15%	3	3	-0.1%
CC1=C(C(=O)N2CCOCC2)CC(CC(=O)NCCc2ccccn2)C(=O)N1CCCN1CCCC1=O (centres undefined)	nt	nt	nt	nt	0	-2	0.7%
COc1ccccc1NS(=O)(=O)c1cc(NC(=O)c2ccc(Cl)nc2)ccc1N1CCCC1	nt	-34	2.9	nt	-18	23	1.5%
Cc1ccc(C(=O)OCC(=O)N2C(C)CCCC2C)cc1S(=O)(=O)N1CCOCC1 (centres undefined)	-10	3	-2.9	nt	3	-12	0.3%
CC(C)OC(=O)c1cccc(C(=O)OCc2ccco2)n1	-3	-8	-2.7	9%	1	3	0.7%
Cc1cc(NN)nc(NS(=O)(=O)c2ccccc2Cl)n1	12	-13	-1.8	13%	-7	nt	1.6%
COc1ccc(/C=C2\SC(=N)N(c3nccs3)C2=O)cc1OC	3	-10	-5.2	14%	-29	-21	12%
COc1ccc(N=Nc2nc3ccc(Br)cc3n2C)cc1	-11	-46	-6.8	16%	?	-29	5.1%
